Screening data: PubChem, National Center for Advancing Translational Sciences (NCATS)
YjeE inh = qHTS Assay for Inhibitors of YjeE. purified YjeE, fluorescence polarisation of a bound ADP probe. Potency, µM. 71,000 tested, 0.05% active. AID 605, 2007; active = well fitted falling curve; inconclusive = weaker or top-dose-only fall, or a rising curve; inactive = flat or poorly fitted curve;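 further: top concentration of the series not given in the record; excess ADP was the control for the full effect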
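Fluorescence polarization of a BODIPY Texas Red–ADP probe (2 uM) bound to purified YjeE (10 uM) was read after 15 min room-temperature incubation with compounds. Loss of polarization marks inhibitors; ADP serves as titrated control.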
Bst PK mod = Pyruvate Kinase; Potency, µM; 51,000 tested, 1.2% active; partly purified Bacillus stearothermophilus pyruvate kinase, luminescence ATP production; ribose 5-phosphate activator present at AC10; in the data active means potency below about 11 µM; inconclusive means mostly about 12 µM to 25 µM; inactive means weaker than that;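 the screen sought inhibitors and activators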;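 further: potency means the concentration at half of the fitted maximal effect; scaled between full activation by ribose 5 phosphate and full inhibition by luteolin; about four in five hits inhibit and the cells do not say which; series up to 57 µM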
* marks the source's active call; other numbers are inactive results; i = inactive; . = no result given.

SMILES	YjeE inh	Bst PK mod
COc1ccc(/C(O)=C2/C(=O)C(=O)N(Cc3cccnc3)C2c2ccncc2)cc1F (centres undefined)	i	>57
Cc1c(Cl)cccc1NC(=O)c1cc(C2CC2)on1	i	.
Cc1ccccc1-c1nc(CS(=O)(=O)CC(=O)Nc2cc(F)ccc2F)c(C)o1	i	.
COc1ccc(S(=O)(=O)Cc2ccc(C(=O)N3CCN(c4ccccn4)CC3)o2)cc1	i	.
Cc1cc2c(=O)n(CC(=O)N3CCN(c4ccc(F)cc4)CC3)cnc2s1	i	>57
Cn1c(C(=O)N2CCCC(C(=O)NCCCSC3CCCCC3)C2)cc2sccc21 (centres undefined)	i	>57
CCn1c(NC(=O)c2cccc(Cn3cc(Cl)cn3)c2)nc2ccccc21	i	.
Cc1nn(C)c(C)c1S(=O)(=O)Nc1ccc2c(c1)OCO2	i	>57
COC(=O)COn1c(SCC(=O)OC)nc2ccccc2c1=O	.	>25.6
CCC(C)(C)n1nnnc1C(c1ccccn1)N1CCOCC1 (centres undefined)	i	>57
Cc1ccc(CNC(=O)CN2C(=O)COc3ccc(C)cc32)cc1	i	>57
CC(C)(C)OC(=O)N1CCCC(C(=O)CC#N)C1 (centres undefined)	i	>57
CCOC(=O)CC(=O)CSc1nc(-c2cccnc2)ccc1C#N	i	i
CC(C)c1ccc(O)c(N)c1	.	>11.4
Clc1ccc(-c2nn3c(-c4ccccc4)nnc3s2)cc1	i	i
CC(=O)Nc1ccc(C(=O)CSc2nnc(Cn3nnc4ccccc43)n2C)cc1	i	>57
Cc1c(N=Cc2c(O)n(Cc3ccco3)c(=O)c3ccccc23)c(=O)n(-c2ccccc2)n1C	i	>57
CCOC(=O)c1sc(NC(=O)CSc2n[nH]c(-c3ccccc3)n2)c(C#N)c1C	i	>57
COCCCn1c(=S)[nH]c2ccc(N3CCOCC3)cc2c1=O	i	>57
CCc1ccc2[nH]c(=O)c(C(c3nnnn3Cc3ccc(OC)cc3)N3CCOCC3)cc2c1 (centres undefined)	i	>57
N#CC(C(=O)NC1CC1)c1nc2ccccc2nc1N1CCN(C/C=C/c2ccccc2)CC1 (centres undefined)	.	>25.6
COCC(=O)N1CCC2(CC1)CCN(c1ccncc1)CC2	i	.
CCOC(=O)c1c[nH]c2c(Cl)ccc(Cl)c2c1=O	i	.
CCOC(=O)CSc1nnc([C@H](CC(C)C)NC(=O)OC(C)(C)C)o1	i	>57
CCCCN(C)C(=O)C(Cc1ccccc1)NS(=O)(=O)c1ccc2c(c1)CCC(=O)N2 (centres undefined)	i	.

(list continues)
SMILES	YjeE inh	Bst PK mod
COc1cc(C(=O)NCc2cn3ccsc3n2)cc(OC)c1OC	i	>57
COC(=O)CSc1nnc2n1C(C)(C)Cc1ccccc1-2	i	>57
COc1ccc(N(Cc2cc3cc(OC)ccc3[nH]c2=O)S(C)(=O)=O)cc1	i	7.73*
O=C(NC12CC3CC(CC(C3)C1)C2)N1CCC(O)CC1	i	>57
Cc1cc(C(=O)NCCCc2ccccc2)no1	i	>57
CCOC(=O)CCn1nnc(N)n1	i	>57
COc1ccc(OC)c(C2C(C(=O)c3cc4ccccc4o3)=C(O)C(=O)N2c2cc(C)on2)c1 (centres undefined)	i	>57
COc1ccccc1C(=O)Nc1c(C)n(C)n(-c2ccccc2)c1=O	i	.
NS(=O)(=O)c1ccc(NC(=O)CCC2CCCCC2)cc1	i	.
CCn1c(SCC(=O)Nc2cccc(C)n2)nnc1-c1ccco1	i	>57
O=C(CN(C(=O)CCC(=O)Nc1nccs1)c1ccc2c(c1)OCO2)NCC1CCCO1 (centres undefined)	i	>57
CC(C)(C)n1nnnc1C(c1ccc2ncccc2c1)N1CCSCC1 (centres undefined)	i	>57
CCOC(=O)CSc1nn(C)c(=S)s1	i	.
CCOC(=O)N1CCN(C(=O)C2CCN(S(=O)(=O)c3ccc(Br)s3)CC2)CC1	i	>57
COc1ccccc1NS(=O)(=O)c1cc(Cl)ccc1OC	i	>57
O=C(Nc1cnc2ccccc2c1)N1CCOCC1	i	>11.4
COC(=O)c1ccc(=O)n(Cc2ccc3c(c2)OCO3)c1	.	>25.6
COc1cc(C)nc(N2CCC(C(=O)NC3CCCCC3)CC2)n1	i	>57
CCCC/C=C/C(NC(=O)c1ccc(-c2ccccc2)cc1)c1ccccc1 (centres undefined)	i	.
CC(CCc1ccccc1)NC(=O)C1CCN(c2nnc(-n3cccc3)s2)CC1 (centres undefined)	i	.
N#C/C(=C\c1ccc(O)c(O)c1)C(=O)NCCCc1ccccc1	i	>11.4
O=C(NCCOC(=O)c1ccc(C(=O)OCCNC(=O)c2ccccc2)o1)c1ccccc1	i	.
O=S(=O)(c1cccc2cccnc12)N1CCc2ccccc21	i	1.44*
CCN1CCN(C(c2cc(OC)ccc2OC)c2nnnn2Cc2ccccc2)CC1 (centres undefined)	i	>57
NC([N-]/N=C/c1ccccn1)=[S]=[Fe].O=S(=O)(O)O	i	.

Seven compounds already listed, arranged by molecular weight, lowest first.
SMILES	YjeE inh	Bst PK mod
O=C(Nc1cnc2ccccc2c1)N1CCOCC1	i	>11.4
O=S(=O)(c1cccc2cccnc12)N1CCc2ccccc21	i	1.44*
N#C/C(=C\c1ccc(O)c(O)c1)C(=O)NCCCc1ccccc1	i	>11.4
COc1cc(C)nc(N2CCC(C(=O)NC3CCCCC3)CC2)n1	i	>57
COc1ccccc1C(=O)Nc1c(C)n(C)n(-c2ccccc2)c1=O	i	.
CCn1c(SCC(=O)Nc2cccc(C)n2)nnc1-c1ccco1	i	>57
CCN1CCN(C(c2cc(OC)ccc2OC)c2nnnn2Cc2ccccc2)CC1 (centres undefined)	i	>57

The list goes on:
SMILES	YjeE inh	Bst PK mod
Fc1cccc(/C=N\N=C/c2cccc(F)c2)c1	i	.
O=C1CC(c2ccc(F)cc2)Sc2ccccc2N1 (centres undefined)	i	>57
c1ccc(COc2ccc(Nc3ncnc4nc[nH]c34)cc2)cc1	i	.
O=C(CSc1nnc(-c2cccs2)o1)N1CCCCC1	i	.
COc1cccc(C2=NOC(C(=O)Nc3ccc(OC)c(OC)c3)C2)c1 (centres undefined)	i	>57
Cc1sc2nc(C(C)Nc3ccccc3N3CCOCC3)[nH]c(=O)c2c1C (centres undefined)	i	>57
COn1c(SCc2cccnc2)nc2ccccc2c1=O	i	>57
Cc1ccc(-c2nnc(SCC(=O)Nc3ccccc3N3CCOCC3)o2)cc1	i	>57
CSc1nnc(-c2ccncc2)n1CCCN1CCCC1=O	i	>57
CC1=C(C(=O)Nc2ccccc2Cl)C(c2ccc(N(C)C)cc2)NC(=O)N1 (centres undefined)	i	.
CCOC(=O)c1ccccc1NC(=O)CN(c1ccccc1OCC)S(C)(=O)=O	i	.
CCCCCC(C(=O)O)C(C)CC(=O)NC1CCCCC1 (centres undefined)	i	>57
O=C1C2CCCN2C(c2ccc(Br)cc2)N1c1ccc(F)cc1 (centres undefined)	i	.
O=C(Nc1ccc(N2CCOCC2)cc1)C1CC1	i	>57
Cc1oc(-c2nc3ccccc3n2C)cc1C(=O)c1ccccc1	i	3.41*
Cn1cnnc1Sc1nc2c(c(=O)n(C)c(=O)n2C)n1C	i	>57
Cc1n[nH]c(C)c1S(=O)(=O)N1CCc2ccccc21	i	>57
O=C(CN1C(=O)CSc2ncccc21)NCCN1CCOCC1	i	.
CC(C)CO[C@H](c1ccc2c(c1)OCO2)[C@H](C)Br	i	.
Cc1ccc2sc(NC(=O)CN3C(=O)CCC3=O)nc2c1C	i	.
CC1CCCC(C)N1C(=O)CN1CCN(c2nc(-c3ccc(F)cc3)cs2)CC1 (centres undefined)	i	>11.4
Cc1nc2cc(C(F)(F)F)ccc2n1C1CCN(CC(=O)NC(C)(C)C)CC1	i	>57
CCOc1ccc(-n2c(=O)c3c(C)c(C)sc3n(CC(=O)NCc3ccco3)c2=O)cc1	i	>57
Cc1ccc(-c2nnn(CC(=O)N(CC(=O)NCc3ccccc3)c3cccc(C)c3C)n2)o1	i	4.38*
CCOC(=O)c1oc2ccccc2c1CSc1nnnn1-c1ccc(OC)cc1	i	>57

Gathered by group, those above containing two or more sulfur atoms.
SMILES	YjeE inh	Bst PK mod
Cn1c(C(=O)N2CCCC(C(=O)NCCCSC3CCCCC3)C2)cc2sccc21 (centres undefined)	i	>57
CCOC(=O)c1sc(NC(=O)CSc2n[nH]c(-c3ccccc3)n2)c(C#N)c1C	i	>57
CCOC(=O)CSc1nn(C)c(=S)s1	i	.
CCOC(=O)N1CCN(C(=O)C2CCN(S(=O)(=O)c3ccc(Br)s3)CC2)CC1	i	>57
NC([N-]/N=C/c1ccccn1)=[S]=[Fe].O=S(=O)(O)O	i	.
O=C(CSc1nnc(-c2cccs2)o1)N1CCCCC1	i	.

(more compounds)
SMILES	YjeE inh	Bst PK mod
CCCC(N)CCCCCC(=O)O (centres undefined)	i	.
O=S(=O)(NCc1ccccc1)c1cccc2nonc12	i	>57
COc1cc(OC)cc(C(=O)NCc2n[nH]c(=S)n2-c2ccccc2OC)c1	i	>57
CC1(C)Oc2ccc3ccc(=O)oc3c2-c2cn[nH]c21	i	>57
COc1ccc(NS(=O)(=O)c2coc(C(N)=O)c2)cc1Cl	i	.
Cc1sc2nc(SCc3nc4ccccc4[nH]3)n(Cc3ccco3)c(=O)c2c1C	i	>57
CC(C)(C)c1ccc(C(=O)NCc2cccnc2)cc1	i	>57
CCCCN1C(=O)C(NC(C)=O)c2cc(Br)ccc21 (centres undefined)	i	>57
CC(=O)N1C(C(=O)O)CSC1c1cccc(C)c1 (centres undefined)	i	>57
COCCOC(=O)C1=C(C)NC(=O)NC1c1ccc(OC(=O)c2ccco2)c(OC)c1 (centres undefined)	i	.
Cc1ccc(-c2nc(CS(=O)(=O)CC(=O)NCCCN3CCN(C)CC3)c(C)o2)cc1	i	.
O=C(NCC(=O)N(c1ccc2c(c1)OCO2)C(C(=O)NC1CCCC1)c1ccncc1)c1ccco1 (centres undefined)	i	>57
CCOC(=O)C1C(C)=CC(=O)CC1c1ccco1 (centres undefined)	i	>57
Cc1ccc(-c2nnn(CC(=O)N(Cc3cccs3)C(C(=O)NC3CCCC3)c3ccco3)n2)o1 (centres undefined)	i	>57
CCc1ccc(CCC(=O)Nc2ccc(S(N)(=O)=O)cc2)o1	i	>57
O=C(Nn1c(=S)[nH]c2ccccc2c1=O)c1ccncc1	i	.
Cc1cccc(NC(=O)NCC(c2cccnc2)N2CCOCC2)c1 (centres undefined)	i	>57
CCC(C)NC(=O)c1n[nH]c(=O)c2ccccc12 (centres undefined)	i	>57
O=C(Nc1ccncc1)Nc1ccc(F)cc1F	i	.
Cc1cc(N2CCC(C)CC2)nc(-n2nc(C)cc2C)n1	i	.
CCOC(=O)c1cn(CC(=O)Nc2ccc(C)cc2)nn1	i	>57
CCN1CCCC1CNC(=O)CN1C(=O)COc2ccc(C)cc21 (centres undefined)	i	.
Cc1cc2oc(=O)cc(COC(=O)c3cccc(N(C)C)c3)c2cc1C	i	>57
Nc1nncn1C(=O)CCc1ccccc1	i	>57
CCCCC(c1nnnn1C1CCCC1)N1CCN(C(=O)c2ccco2)CC1 (centres undefined)	i	>57

The list continues:
SMILES	YjeE inh	Bst PK mod
Cc1sc2ncn(CC(=O)NCc3ccccn3)c(=O)c2c1S(=O)(=O)N1CCOCC1	i	>57
CN1CCN(c2nc(-c3cccc(C#N)c3)nc3ccccc23)CC1	i	.
CSc1cccc(NS(=O)(=O)c2cccs2)c1	i	>57
C=CCc1c(C)nc2c(C(=O)O)cnn2c1C	i	>57
Cc1ccc(OCc2nc(C#N)c(NCc3ccc4c(c3)OCO4)o2)cc1	i	>57
CCC(=O)NC(C)c1nc2ccccc2n1C (centres undefined)	i	>57
CC(C)NS(=O)(=O)c1ccc(OCC(N)=O)c(Cl)c1	i	>57
Cc1cc(NCCNC2=CC(=O)CCC2)nc2ccccc12	.	>25.6
CCCCOc1ccc(C(=O)NCCCC(=O)N2CCCCC2)cc1	i	.
CC1CCCCC1NC(=O)COc1ccc(-n2cnnn2)cc1 (centres undefined)	i	>57
Cc1nc(N2CCN(C)CC2)[nH]c(=O)c1Cc1cccc2ccccc12	i	>57
CCN(CC)C(=O)CSc1nsc(SCC(=O)N(CC)CC)c1C#N	i	.
O=c1c2[nH]c3cccc(Cl)c3c2ncn1Cc1ccncc1	i	>57
O=C(NCc1cccs1)C1CC(=O)N(C2CCCC2)C1 (centres undefined)	i	>57
CCOCCCn1c(=S)[nH]c2cc(C(=O)N3CCOCC3)ccc2c1=O	i	>57
Oc1cc(O)cc(/C=C\c2ccc(O)c(O)c2)c1	i	.
CCn1c(SCc2ccc(OC)cc2)nnc1-c1ccncc1	i	>57
CS(=O)(=O)OCCCCOS(C)(=O)=O	i	.
Cc1ccc(-n2cnnn2)c(S(=O)(=O)N2CCOCC2)c1	i	>57
COC(=O)CSc1nnc(-c2ccccn2)n1Cc1ccco1	i	>57
Cc1cc(NC(=O)C2CCC2)n(-c2ccccn2)n1	i	>57
O=C(CN(c1ccc2c(c1)OCCO2)S(=O)(=O)c1ccccc1)NCc1ccco1	i	>57
Cc1ccc(-n2nc3c(c2NC(=O)c2ccc(Br)o2)CSC3)c(C)c1	i	>57
Cc1ccc2nsnc2c1S(=O)(=O)N1CCN(Cc2ccc3c(c2)OCO3)CC1	i	.
COC(=O)C1(C)Nc2ccccc2C(=O)N1c1ccccc1OC (centres undefined)	i	.
COc1ccc(COC(=O)c2nc3nc(C)cc(C)n3n2)cc1F	i	>57
CCN(C(=O)COc1cc(=O)n(CC)c2ccccc12)c1cc(Cl)ccc1OC	i	.
CCCn1c2ccccc2c2nc3ccccc3nc21	i	.

Profiles, looked up by structure.
Cc1cc(NC(=O)C2CCC2)n(-c2ccccn2)n1 in the list: YjeE inh: i; Bst PK mod: >57
CCN(CC)C(=O)CSc1nsc(SCC(=O)N(CC)CC)c1C#N in the list: YjeE inh: i; Bst PK mod: .

Some of the compounds tested, so the mix of outcomes need not match the whole.
